# From PubChem BioAssay
# Bst PK mod = alters activity of Bacillus stearothermophilus pyruvate kinase. partly purified Bacillus stearothermophilus pyruvate kinase, luminescence ATP production; ribose 5-phosphate activator present at AC10. Potency, µM. 51,000 tested, 1.2% active. AID 361; in the data active means potency below about 11 µM; inconclusive means mostly about 12 µM to 25 µM; inactive means weaker than that;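 the screen sought inhibitors and activators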;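 also: potency is read from the fitted curve at half-maximal effect; scaled between full activation by ribose 5 phosphate and full inhibition by luteolin; about four in five hits inhibit and the cells do not say which; series up to 57 µM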
# YjeE inh = displaces an ADP probe from E. coli YjeE (TsaE); P0AF67; purified YjeE, fluorescence polarisation of a bound ADP probe; Potency, µM; 71,000 tested, 0.05% active; AID 605; active = well fitted falling curve; inconclusive = weaker or top-dose-only fall, or a rising curve; inactive = flat or poorly fitted curve;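 also: top concentration of the series not given in the record; excess ADP was the control for the full effect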
#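 Purified YjeE (10 uM) with BODIPY Texas Red-labeled ADP probe (2 uM); compounds pin-transferred, 15 min at room temperature. Binding inhibition read as decreased fluorescence polarization; ADP titration as control.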
# Active calls of the source: *; i = inactive; / = no result given. Only part of the results is shown; the hit share may differ from the screen's.
SMILES,Bst PK mod,YjeE inh
CCOC(=O)c1c(NC(=O)CSc2nnc(Cc3csc(N)n3)n2C)sc(C)c1C,>57,i
CCNc1ncc2nc(CCc3ccccc3)c(=O)n(C)c2n1,/,i
O=C(CN(Cc1ccccc1)C(=O)CCC(=O)Nc1ccccn1)NCc1ccco1,>57,i
Cc1ccc(CN2C(=O)CCC2C(=O)NCc2ccco2)cc1 (centres undefined),>57,i
Cc1cc(C(=O)CSc2nnc(-c3ccccc3)n2-c2ccccc2)c(C)n1-c1ncn[nH]1,>57,i
CSCCC(NC(=O)CCN1C(=O)c2ccccc2C1=O)C(=O)O (centres undefined),>57,i
COCCSc1nnc(NC(=O)C2CCCO2)s1 (centres undefined),>57,i
Cc1c(C#N)c2ccccc2n1CC(=O)NCc1cccnc1,/,i
O=C1C=C(NCc2ccc(Cl)cc2)CC(c2ccco2)C1 (centres undefined),/,i
Nc1ccc(C(=O)C[C@H](N)C(=O)O)cc1O,/,i
CC1Cc2ccccc2N1C(=O)CSc1nnc2sc3ccccc3n12 (centres undefined),>57,i
COc1ncc2ncc(=O)n(C[C@H]3CCCO3)c2n1,/,i
CC1(C(=O)NC2CCCCC2)CCC(=O)N1Cc1cccnc1 (centres undefined),/,i
COCc1nnc(NC(=O)CCC2CCCCC2)s1,>57,i
O=C(Oc1nsnc1N1CCOCC1)N1CCCCC1,>57,i
Cc1ccc(S(=O)(=O)NCCc2ccncc2)cc1,/,i
O=C(O)c1cc(-c2ccncc2)nc2ccccc12,/,i
COc1ccc(C(C(=O)NC2CCCCC2)N(CC2CCCO2)C(=O)CNC(=O)c2ccco2)cc1 (centres undefined),>57,i
CN(C)c1nc(-c2ccoc2)nc2ccccc12,/,i
Cn1c(=O)c2c(nc(CN3CCc4ccccc4C3)n2CCc2ccccc2)n(C)c1=O,>57,i
CCn1c(SCC(=O)OCc2ccccc2)nnc1-c1ccco1,>57,i
O=C(Nc1ccc(S(=O)(=O)NCc2cccnc2)cc1)c1ccco1,>57,i
Cc1cc(C)nc(SCc2nnc(SCC(=O)OC3CCCCC3)o2)n1,>57,i
CCc1ccc2[nH]c(=O)c(CN(Cc3nnnn3C3CCCC3)C3CCCCC3)cc2c1,>57,i
COc1ccccc1-c1ccc2ncnc(NCc3cccnc3)c2c1,/,i
O=C(NC1CC2CCCC(C1)N2C(=O)N1CCCCC1)C1CCCCC1 (centres undefined),>57,i
CN(Cc1ccco1)c1nc(-c2ccccc2C(F)(F)F)nc2ccccc12,/,i
COC(=O)[C@@]1(Cc2ccc(OC)cc2)[C@H]2c3cc(C(=O)N(C)C)n(CCc4ccc(O)c(OC)c4)c3C[C@H]2CN1C(=O)c1ccccc1,/,i
COc1ccc2c(c1)nc1n2CN(CC2CCCO2)CN1Cc1ccccc1 (centres undefined),>57,i
CNC(=O)c1ccc(OCc2ccccc2)c(OC)c1,/,i
CN1CC2=Cc3ccccc3OC23Oc2ccccc2C=C3C1,>57,i
CCOc1ccccc1NC(=O)c1cc(Cl)ccc1NC(=O)c1ccco1,>57,i
Cc1ccc(CCNC(=O)c2coc3nc4ccccc4nc23)cc1,>57,i
Nn1c(SCC(=O)NC2CCCCC2)nnc1-c1ccc(Cl)cc1,>57,i
CCCc1nnc(NC(=O)C(C)N2C(=O)C3C4C=CC(C4)C3C2=O)s1 (centres undefined),>57,i
CC(C)(C)NC(=O)Cn1c(SCC(=O)N2CCCCCC2)nc2ccccc21,>57,i
CCOc1ccc(-n2cnnn2)cc1S(=O)(=O)NCc1ccccc1,>57,i
O=C(NCc1cccnc1)c1cnc2sccn2c1=O,/,i
Cc1cc(-n2[nH]c(C)c(C)c2=O)nc(-c2ccccc2O)n1,>57,i
COCCn1c(=O)c(-c2ccccc2)nc2cnc(Nc3cccc(OC)c3)nc21,/,i
CCCN(CCC)CCNS(=O)(=O)c1ccc2c(c1)oc(=O)n2C,>57,i
CCC(Oc1ccc2c(c1)C(=O)CC(C)(C)O2)C(=O)NCCN1CCCCCC1 (centres undefined),>57,i
CC(C)[C@@H]1N[C@]2(C(=O)Nc3ccccc32)[C@@H]2C(=O)N(c3cccc(C(F)(F)F)c3)C(=O)[C@@H]21,>57,i
COc1ccc(OC)c(NC(=O)CSc2ccccc2)c1,>57,i
Cc1ccccc1S(=O)(=O)O[C@@H]1NS(=O)(=O)c2ccccc21,/,i
O=C(CCC1CCCCC1)Nc1c2c(nn1-c1ccc(F)cc1)CS(=O)(=O)C2,>57,i
COC(=O)Nc1ccc(S(=O)(=O)N2CCCCCC2)cc1,>57,i
CCN(CC)S(=O)(=O)N1CCC(C(=O)NCCN2CCOCC2)CC1,>57,i
c1ccc2c(CC3NCCN3)cccc2c1,/,i
Cc1ccc(NC(=O)CCN2C(=O)c3ccncc3C2=O)cc1,>57,i

# A different layout for part of the listing above.
structure | Bst PK mod | YjeE inh
O=C(CCC1CCCCC1)Nc1c2c(nn1-c1ccc(F)cc1)CS(=O)(=O)C2 | >57 | i
CC(C)[C@@H]1N[C@]2(C(=O)Nc3ccccc32)[C@@H]2C(=O)N(c3cccc(C(F)(F)F)c3)C(=O)[C@@H]21 | >57 | i
CCN(CC)S(=O)(=O)N1CCC(C(=O)NCCN2CCOCC2)CC1 | >57 | i
COC(=O)Nc1ccc(S(=O)(=O)N2CCCCCC2)cc1 | >57 | i
CCCN(CCC)CCNS(=O)(=O)c1ccc2c(c1)oc(=O)n2C | >57 | i
c1ccc2c(CC3NCCN3)cccc2c1 | / | i
Cc1ccccc1S(=O)(=O)O[C@@H]1NS(=O)(=O)c2ccccc21 | / | i

# (list continues)
SMILES,Bst PK mod,YjeE inh
O=C(c1ccncc1)N1CCC2(CC1)CCN(c1ccc(-c3ccccc3)cc1)CC2,/,i
CN=C1SC(CC(=O)Nc2cccc(C(F)(F)F)c2)C(=O)N1C (centres undefined),>57,i
Cc1csc2nc(CNC(=O)CCC(=O)O)cn12,/,i
COc1ccc(NC(=O)N2CC[C@@]3(CCCN(C(C)=O)C3)C2)cc1,/,i
CCc1ccc(S(=O)(=O)NCc2cn3ccccc3n2)s1,>57,i
Nc1nc(SCc2ccccc2)ns1,>57,i
O=S(=O)(NCCN1CCCC1)c1cccc2cccnc12,/,i
CCc1c(C)nc2ncnn2c1N1CCCC(C(=O)NCc2ccc3c(c2)OCO3)C1 (centres undefined),>57,i
CC(C)OC(=O)CSc1nc2ncc(Cl)cc2[nH]1,>57,i
COCCCNC(=O)CN1C(=O)c2ccccc2C1=O,>57,i

# The list goes on, overlapping the part above by 5 compounds.
SMILES,Bst PK mod,YjeE inh
Nc1nc(SCc2ccccc2)ns1,>57,i
O=S(=O)(NCCN1CCCC1)c1cccc2cccnc12,/,i
CCc1c(C)nc2ncnn2c1N1CCCC(C(=O)NCc2ccc3c(c2)OCO3)C1 (centres undefined),>57,i
CC(C)OC(=O)CSc1nc2ncc(Cl)cc2[nH]1,>57,i
COCCCNC(=O)CN1C(=O)c2ccccc2C1=O,>57,i
CCOc1ccc(Cn2c(O)cc(=O)[nH]c2=O)cc1,>26,/
C=CCOC(=O)C1=C(C)NC(SCC(=O)N(CC)CC)=C(C#N)C1c1ccccc1 (centres undefined),>26,/
Cc1cc(N)ccc1NC(=O)c1ccccc1,>57,i
O=C(CCCCCn1c(=S)[nH]c2cc3c(cc2c1=O)OCO3)N1CCN(C2CCCCC2)CC1,>57,i
CCCNS(=O)(=O)c1ccc(CCC(=O)NCc2ccc3c(c2)OCO3)cc1,>57,i
C(#Cc1ccc(C#CCN2CCOCC2)cc1)CN1CCOCC1,/,i
Cc1cccc(OCC(=O)N2CCN(C(=O)c3cccs3)CC2)c1,/,i
CCOC(=O)CCCNS(=O)(=O)c1c(C)ccc2nsnc12,/,i
Cc1ccc(S(=O)(=O)N(c2ccccc2)C2CCS(=O)(=O)C2)cc1 (centres undefined),/,i
COc1cc2cc(C(c3nnnn3C3CCCC3)N3CCc4ccccc43)c(=O)[nH]c2cc1OC (centres undefined),>57,i
COc1cccc(OCC(=O)N(Cc2nc(-c3ccc(Cl)cc3)no2)C(C)C)c1,/,i
CC(C)(C)NC(=O)NC(=O)COC(=O)c1ccco1,>57,i
N#Cc1ccc2ccn(CC(=O)NC3CCCCCC3)c2c1,>57,i
CCOc1ccc(C2CC(c3cccc(C)c3)n3ncnc3N2)cc1 (centres undefined),/,i
CS(=O)(=O)N1CCC[C@@]2(CCN(Cc3nccs3)C2)C1,/,i
COc1cccc(-n2nnc3c(=O)n(CC(=O)OCc4ccccc4)cnc32)c1,>57,i
O=C(NC[C@@H](O)CO)c1c(I)c(C(=O)NC[C@@H](O)CO)c(I)c(N(CCO)C(=O)CO)c1I,/,i
Cc1cc2n(n1)C(c1ccccc1Cl)Nc1ccccc1-2 (centres undefined),>57,i
COC(=O)c1ccc(=O)n(Cc2ccco2)c1,>26,/
Cc1cc(NC(=O)c2cc(-c3ccco3)on2)no1,>57,i
CCOCCCN(C(=O)CNC(=O)c1ccco1)C(C(=O)NC1CCCC1)c1ccccc1C (centres undefined),>57,i
CS(=O)(=O)N(CC(=O)NC1CC2CCC1C2)c1cccc(C(F)(F)F)c1 (centres undefined),>57,i
CCC(C)SCc1nc2ccccc2[nH]1 (centres undefined),/,i
Cc1cnc(CNc2ncnc3ccc(-c4ccccc4C#N)cc23)cn1,/,i
CCOC(=O)Nc1cccc(OCC(=O)Nc2ccccc2OC)c1,>57,i
Cc1ccccc1Cn1c(C(C)O)nc2ccccc21 (centres undefined),>57,i
Cc1ccc(CC2CC(=O)N(c3ccc(Cl)cn3)C2=O)cc1 (centres undefined),>57,i
COc1ccc(N(CC(=O)N2CCN(c3ccccc3)CC2)S(=O)(=O)c2c(C)noc2C)cc1,/,i
CN(C)CCCNC(=O)c1ccc2[nH]c3ccccc3c2c1,/,i
Cc1cnc(CNc2cc(-c3ccccc3C(F)(F)F)ncn2)cn1,/,i
COc1ccccc1NC(=O)CN1CCN(CC(=O)Nc2ccc(F)cc2)CC1,>57,i
COc1cccc(C(=O)N2CCN(Cc3ccc4c(c3)OCO4)CC2)c1OC,>57,i
COC(=O)CCC(=O)COc1ccc(OC)cc1C#N,>57,i
CCCCN(C)S(=O)(=O)c1ccc(C(=O)Nc2nnc(-c3cccs3)o2)cc1,>57,i
O=C(NCCCN1CCCC1=O)c1ccc2c(=O)n(Cc3ccco3)c(=S)[nH]c2c1,>57,i
Nc1ccc(CCS(N)(=O)=O)cc1,>57,i
CCCCNC(=O)NS(=O)(=O)c1ccc(C)cc1,>26,i
CC1CCC2(CC1)NC(=O)c1ccccc1O2 (centres undefined),>57,i
CCCc1[nH]nc2c1C(CCC)C(C#N)=C(N)O2 (centres undefined),>57,i
CCn1cc(SCC(=O)NCc2ccc3c(c2)OCO3)c2ccccc21,/,i

# Sorted by count of non-hydrogen atoms (rising): some entries from above
SMILES,Bst PK mod,YjeE inh
CCCc1[nH]nc2c1C(CCC)C(C#N)=C(N)O2 (centres undefined),>57,i
CCn1cc(SCC(=O)NCc2ccc3c(c2)OCO3)c2ccccc21,/,i
COc1cccc(C(=O)N2CCN(Cc3ccc4c(c3)OCO4)CC2)c1OC,>57,i

# Carrying on.
SMILES,Bst PK mod,YjeE inh
CCOC(=O)C1CCN(CC(=O)c2c(C)[nH]c3cc(C)ccc23)CC1,>11,i
CC(C)C(=O)Nc1nnc(Cc2ccccc2)s1,>57,i
CCOc1ccc(NC(=O)c2ccncc2)cc1,/,i
Cc1[nH]c(=O)c(C#N)cc1-c1ccncc1,/,i
CC(=O)n1cc(Nc2ccccc2C(=O)O)c2ccccc21,/,i
COC(=O)c1cnc2c(C(F)(F)F)cccc2c1OC,>57,i
Cc1ccc(CNC(=O)CN(C)S(=O)(=O)c2cccc3nsnc23)cc1,/,i
O=C(NC1CCCCC1)N(Cc1nc2ccccc2c(=O)[nH]1)C1CCCC1,>57,i
CC(C)(C)NC(=O)CSc1nc(O)cc(=O)n1-c1ccccc1F,/,i
Cc1ccc2cc(CN(CCN3CCCC3)C(=O)Nc3ccccc3)c(=O)[nH]c2c1C,>57,i
CCc1nnc(NC(=O)c2nc3nccc(C)n3n2)s1,>57,i
COc1ccc(-c2nc3cnc(N(C)C)nc3n(CCC#N)c2=O)cc1,/,i
CCOC(=O)N1CCC(Nc2ncnc3c2cnn3-c2ccccc2)CC1,>57,i
CCOC(=O)c1cnn(-c2sc(C(=O)OCC)c(C)c2C(=O)OCC)c1N,>57,i
Nc1ccc(F)cc1F,/,i
N#CC(C(=O)NC1CCCCC1)c1nc2ccccc2nc1N1CCN(c2ccccc2F)CC1 (centres undefined),>26,/
O=C1Nc2ccccc2C(O)(C(=O)NC2CC2)N1c1ccc(Cl)c(Cl)c1 (centres undefined),>57,i
Clc1ccc(Cl)c(SCCCN2CCNCC2)c1,/,i
Cc1ccc(Nc2cc(C)nc3ncnn23)c(Cl)c1,/,i
O=C(CSc1ccc2nnc(-c3ccncc3)n2n1)Nc1ccc2c(c1)OCO2,/,i
Cc1cc(C)c2c(c1)-c1cc(C)nn1C(c1ccc3c(c1)OCO3)N2 (centres undefined),/,i
CCOc1cc(CC(=O)N[C@@H](CC(C)C)c2ccccc2N2CCCCC2)ccc1C(=O)O,/,i
COC(=O)N1CCC2(CCCN(Cc3ccc(C#N)cc3)C2)CC1,/,i
Cc1ccc(-c2ccc(SCC(=O)Nc3nonc3C)nn2)cc1,/,i
CCOC(=O)C1CCCN(c2c(N3CCC(N4CCCCC4)CC3)c(=O)c2=O)C1 (centres undefined),/,i
CCCC(=O)Nc1ccc(NC(=O)c2ccccn2)cn1,/,i
Cc1nc2ncccn2c1-c1csc(NCc2ccco2)n1,>57,i
O=C(CCNc1ccccc1)c1ccc2c(c1)OCO2,/,i
O=C(CSc1nc(-c2ccco2)cc(C(F)(F)F)n1)Nc1cccnc1,>57,i
O=S(=O)(c1ccc(Cl)c(Cl)c1)N1CCc2nc3ccccc3n2CC1,/,i
